Source: PubChem BioAssay
KCNQ2 enhance: enhances the rat KCNQ2 potassium channel; O88943; 0.54% of 310,000 active; CHO-K1 KCNQ2, FluxOR thallium flux fluorescence; active compounds read high; B-score at 10 µM;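 active means fluorescence ratio B-score at least 3 SD of library B-scores, with initial fluorescence B-score within 3 SD, cut at about 5.3 in these data; same plate scores as AID 2156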;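 further: B-score of peak minus minimum over baseline fluorescence ratio after K+ and Tl+ stimulus; positive B-score means potentiation of KCNQ2 with more thallium influx and brighter signal; only the inactives scoring about 0 or higher are listed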
Target sequence (O88943 whole entry, looked up): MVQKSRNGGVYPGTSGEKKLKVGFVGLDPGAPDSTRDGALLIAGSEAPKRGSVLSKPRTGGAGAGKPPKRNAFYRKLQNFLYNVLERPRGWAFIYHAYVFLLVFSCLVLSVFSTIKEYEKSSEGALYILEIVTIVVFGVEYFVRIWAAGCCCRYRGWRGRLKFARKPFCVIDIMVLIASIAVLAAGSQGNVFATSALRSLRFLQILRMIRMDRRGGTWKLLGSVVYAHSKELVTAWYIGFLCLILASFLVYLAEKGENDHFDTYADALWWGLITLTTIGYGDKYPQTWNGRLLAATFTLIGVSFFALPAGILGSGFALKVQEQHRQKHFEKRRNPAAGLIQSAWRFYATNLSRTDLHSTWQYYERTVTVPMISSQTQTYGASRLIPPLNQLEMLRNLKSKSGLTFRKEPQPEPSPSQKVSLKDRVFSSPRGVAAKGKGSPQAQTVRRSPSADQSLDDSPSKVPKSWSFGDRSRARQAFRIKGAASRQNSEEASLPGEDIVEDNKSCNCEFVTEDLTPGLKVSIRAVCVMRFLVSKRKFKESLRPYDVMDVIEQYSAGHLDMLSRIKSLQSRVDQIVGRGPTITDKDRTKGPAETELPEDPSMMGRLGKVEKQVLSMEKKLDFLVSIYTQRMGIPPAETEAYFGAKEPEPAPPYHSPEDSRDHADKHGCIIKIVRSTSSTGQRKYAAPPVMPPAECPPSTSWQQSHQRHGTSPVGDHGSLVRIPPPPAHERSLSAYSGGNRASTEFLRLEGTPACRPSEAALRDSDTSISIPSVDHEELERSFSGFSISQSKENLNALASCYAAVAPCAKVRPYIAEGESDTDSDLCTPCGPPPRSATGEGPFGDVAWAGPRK
KCNQ2 enhance baseline: second read-out of KCNQ2 enhance, no call of its own (marks repeat the call); B-score; compound at 10 µM; measured here: initial fluorescence intensity artifact check;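 brightness before thallium and not channel activity; 0 = typical well and far values either way flag optical interference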
* = called active by the depositor.

KCNQ2 enhance,KCNQ2 enhance baseline,Compound
0.94,0.32,O=C(NNC(=O)C1[C@H]2CCCC[C@@H]12)Nc1cccc2ccccc12 (some centres not stated)
2.2,-0.43,COc1ccccc1N(C)S(=O)(=O)c1ccc(C(=O)NC(C)c2ccccc2)cc1 (configuration not stated)
0.75,-1.1,COc1cnc(-c2ccccn2)nc1Sc1ccc(F)cc1
0.02,3.2,CC1(C)CC(NS(=O)(=O)c2ccc(S(=O)(=O)N3CCOCC3)cc2)CCO1 (configuration not stated)
1.1,-0.24,CCC(C)N(NC(C)=O)c1nc(Cl)nc(NC(C)(C)C)n1 (configuration not stated)
0.06,-1.3,COCCN(CCOC)S(=O)(=O)c1ccc(C(=O)Nc2c(C)n(C)n(-c3ccccc3)c2=O)cc1
0.96,0.23,COCCNC(=O)CN1C(=O)NC2(CCCc3cc(OC)ccc32)C1=O (configuration not stated)
1.3,0.26,Cc1ccc(CSc2nnc(CCCCCNC(=O)OC(C)(C)C)o2)cc1
1.6,1.1,Cc1ccc(/C=C/C(=O)OCC(=O)Nc2ccc3[nH]c(=O)[nH]c3c2)o1
0.19,-0.01,O=C(NCCc1ccccn1)c1cncc(Br)c1
0.62,2.4,Clc1ccccc1CSc1nnc(-c2ccccn2)n1Cc1ccco1
0.93,-1.1,CCOC(=O)c1c(NC(=O)CSc2nnnn2-c2ccc(OC)cc2)sc(C)c1C
1.2,-0.76,O=C1N/C(=N/O)S/C1=C\c1ccccc1-n1cccn1
0.19,1.9,NC(=O)C1CCN(Cc2nc(-c3ccccc3)no2)CC1
1.3,-1.2,CCN(CC)CCCN=Cc1c(O)n(-c2c(C)cccc2C)c(=O)c2ccccc12
0.75,-0.09,CCCCC(O)(c1ccc(OC)cc1)C(CN1CCOCC1)c1ccccc1 (configuration not stated)
3.2,0.58,S=c1nn[nH]n1C12CC3CC(CC(C3)C1)C2
0.81,1,CCN(CC)C(=O)Cn1cc(S(=O)(=O)CC(=O)N2CC(C)OC(C)C2)c2ccccc21 (configuration not stated)
0.43,0.18,CCOC(=O)C1(Cc2ccc(OC)cc2)CCN(C(=O)c2cccc3nccnc23)CC1
1.7,0.08,COc1ccc(/C=C(/NC(=O)c2ccccc2)C(=O)NCc2ccco2)cc1
0.01,2.7,Cc1ccc(CCNS(=O)(=O)c2cc3c(cc2C)NC(=O)CO3)cc1
0.48,1.9,COc1cc(NS(=O)(=O)c2ccc(NC(=O)CN3C(=O)c4ccccc4C3=O)cc2)nc(OC)n1
1.3,1.1,COc1ccccc1-c1noc(-c2cccs2)n1
0.76,0.8,O=C(O)c1n[nH]c2ccccc12
0.2,0.36,O=[N+]([O-])c1ccc(N2CCOCC2)c(S(=O)(=O)N2CCOCC2)c1
0.15,-0.54,CCCn1nnc(NC(=O)c2cccc(OCC)c2)n1
1.2,-2.6,Cc1ccc(S(=O)(=O)N2CCN(C(=O)/C=C/c3ccco3)CC2)cc1
0.92,-0.92,Cc1ccc(C(=O)NC(=S)NCC2CCCO2)cc1 (configuration not stated)
0.09,-2,COc1ccc(/C=N/n2c(-c3cc(C)[nH]n3)n[nH]c2=S)cc1
0.58,-0.39,CCCc1c(C(=O)N/N=C/C(C)=C/c2ccccc2)nnn1-c1nonc1N

2 of the compounds above, with two lines to a compound.
Screens in order: KCNQ2 enhance | KCNQ2 enhance baseline
> CCOC(=O)c1c(NC(=O)CSc2nnnn2-c2ccc(OC)cc2)sc(C)c1C
→ 0.93 | -1.1
> O=C1N/C(=N/O)S/C1=C\c1ccccc1-n1cccn1
→ 1.2 | -0.76

Going on with the list:
KCNQ2 enhance,KCNQ2 enhance baseline,Compound
0.08,1.5,Cn1c(=O)[nH]c(=O)c2c1nc(CN1CCN(c3cccc(Cl)c3)CC1)n2CCc1ccccc1
0.02,2,Cc1cc(C)n2nc(C(=O)Nc3nnc(C4CC4)s3)nc2n1
0.41,-1.8,O=C(CCCn1c(=O)c2ccccc2n(Cc2ccccc2)c1=O)NCc1ccco1
1,-0.26,O=C(CCc1c[nH]c2ccccc12)Nc1ncccc1O
0.52,0.23,CSc1cccc(NC(=O)C2CCN(S(=O)(=O)c3ccc(F)cc3)CC2)c1
0.2,-0.08,O=C(O)c1nc(N2CCCC2)ncc1Cl
0.89,-0.26,Cc1nc(N2CCC(C(N)=O)CC2)c2c(-c3cccs3)csc2n1
1.7,-0.27,O=C(Nc1ccc(S(=O)(=O)Nc2ncccn2)cc1)c1ccccc1Cl
0.53,-0.03,Cc1cc(C)nc(SCC(=O)NN)n1
0.23,-0.52,O=C(O)CCc1nn2c3ccccc3nc2n(CCN2CCCCC2)c1=O
0.56,0.44,CCC(=O)OCC(=O)Nc1cc([N+](=O)[O-])ccc1OC
0.99,0.78,O=C(NC(=S)Nc1ccc(S(=O)(=O)N2CCCCC2)cc1)c1ccccc1
0.76,-0.47,CCO[C@H]1OC(C(=O)NCc2ccccc2)=C[C@@H](C2CCCCC2)[C@@H]1CCCO
0.16,-0.45,COc1ccc(COC(=O)c2cccc(S(=O)(=O)N3CCN(C(C)=O)CC3)c2)cc1
0.13,-0.2,CCOC(=O)c1cccc(-c2ccc(C=O)o2)c1
0.36,1.2,O=C(Cn1nnc2ccccc21)Nc1ccc(Cl)cn1
0.05,0.23,Cc1cccc2c(C(=O)Nc3ccc(Br)cc3)cc(-c3ccccn3)nc12
0.52,-0.59,COc1ccc(S(=O)(=O)Nc2ccc(N3CCOCC3)cc2)cc1
1,-0.81,CN(CC(=O)Nc1ccc(F)cc1)C(=O)COC(=O)c1ccc(-c2ccccc2)cc1
1.5,-0.71,NC(=O)C1CCN(CC(=O)NC2CCCc3ccccc32)CC1 (configuration not stated)
0.07,-0.16,CCP(=O)(c1cccc([N+](=O)[O-])c1)c1cccc([N+](=O)[O-])c1
0.55,0.21,C/C(Nc1ccc(Cl)cc1)=C(/C#N)C(N)=O
0.02,0.41,S=C(N/N=C/c1ccccc1Cl)Nc1ccccc1
0.36,3.5,CCn1cc(C(C)NC(=O)Nc2ccccc2C(=O)OC)c(C)n1 (configuration not stated)
0.48,-0.58,CC(C)CNC(=O)CN(C1CCCCC1)S(=O)(=O)c1ccccc1
0.38,-1.1,COc1ccc(CCC2(C)NC(=O)NC2=O)cc1 (configuration not stated)
0.6,0.31,CCCNc1cc(C)oc(=O)c1C(=O)CCC
0.24,0.4,CC(C)c1nnc(NC(=O)CCC(=O)N2CCN(c3ccc(F)cc3)CC2)s1
2.7,-3,Cc1coc2cc3oc(=O)c4c(c3cc12)CCCC4
0.96,1.1,CCCCC(=O)Nc1nnc(/C=C/c2ccc(OC)cc2)s1

Overlap with the part before: 5 compounds, followed by the next part.
KCNQ2 enhance,KCNQ2 enhance baseline,Compound
0.38,-1.1,COc1ccc(CCC2(C)NC(=O)NC2=O)cc1 (configuration not stated)
0.6,0.31,CCCNc1cc(C)oc(=O)c1C(=O)CCC
0.24,0.4,CC(C)c1nnc(NC(=O)CCC(=O)N2CCN(c3ccc(F)cc3)CC2)s1
2.7,-3,Cc1coc2cc3oc(=O)c4c(c3cc12)CCCC4
0.96,1.1,CCCCC(=O)Nc1nnc(/C=C/c2ccc(OC)cc2)s1
0.19,1.6,Cc1ccc(C(=O)N/N=C\c2ccc(Br)o2)o1
0.25,-0.26,O=C(COC(=O)c1ccc(S(=O)(=O)NCc2ccco2)cc1)NC1CCCCCC1
0.05,0.54,CCOC(=O)CC1(c2ccc(OC)c(OC)c2)C(=O)c2ccccc2C1=O
1,1.6,CC(C)NC(=O)CC(=O)N/N=C/c1cccs1
0.6,-2.4,CNc1nc(N)c([N+](=O)[O-])c(NCC2CCCO2)n1 (configuration not stated)
0.1,-3.8,O=C1Nc2ccc(Br)cc2C1(O)Cc1ccncc1 (configuration not stated)
1.1,-0.68,Cc1cc(Cn2nc(-c3ccccc3)cc2C(=O)NCc2cccc(C(F)(F)F)c2)on1
2,0.35,Cc1cc(C(=O)Nc2sc3c(c2C#N)CCC3)no1
0.92,0.94,COc1ccc(CN(C)C2CCCCC2)c(C)c1C
0.26,1.3,Cc1ccc(C)c(NC(=O)COC(=O)CCCN=C2NS(=O)(=O)c3ccccc32)c1
1.2,-1.6,COc1ccc(/C=C(/NC(=O)c2ccc(C)cc2)C(=O)N2CCCC2)cc1OC
2.5,-1.5,CC(C)c1ccc(NC(=O)CCCC(=O)NCCc2ccccc2)cc1
1,-0.7,O=S(=O)(Cc1nnnn1-c1ccccc1)c1ccccc1
0.62,0.04,COc1ccc(OC)c(NC(=O)c2sc3ncnc(N4CCN(c5ccccn5)CC4)c3c2C)c1
0.99,0.2,COc1ccc(OCCN2C(=O)c3cccc(N)c3C2=O)cc1
0.93,-0.2,CC(=O)Nc1ccc(-c2csc(Nc3ccc(S(N)(=O)=O)cc3)n2)cc1
0.27,0.02,COc1ccc(NC(=O)NNC(=O)CCC(=O)Nc2ccccc2Cl)cc1
0.02,1.7,COc1ccc(Cl)cc1Nc1nc(-c2sc(NC(=O)c3ccccc3)nc2C)cs1
0.01,1.1,NS(=O)(=O)c1ccc(CNc2nc(-c3cccnc3)nc3ccccc23)cc1
2.3,2.2,CNc1nc(NCc2ccccc2)c2ccccc2n1
1.3,0,FC(F)(F)c1cccc(Nc2ncnc3ccccc23)c1
1,-0.19,CC(=O)NC(CC(=O)NCCc1ccccc1)c1ccccc1 (configuration not stated)
1.3,0.88,Cc1c(OCC(=O)NCc2cccnc2)ccc2c3c(c(=O)oc12)CCC3
0.9,1,CCOc1ccc2nc(NC(=O)CSc3nc4ccccc4c(=O)n3Cc3ccco3)sc2c1
0.32,0.07,O=C(CCN1C(=O)/C(=C/c2ccccc2Cl)SC1=S)Nc1ccccn1
0.41,3.2,COc1ccccc1NC(=O)Cn1c(=O)n(C)c(=O)c2sc3c(c21)COC(C)(C)C3
0.62,-4.2,CSCCC(NS(=O)(=O)c1ccc(Cl)c(Cl)c1)C(=O)O (configuration not stated)
0.89,1.1,Cc1cc(C)n2nc(S(=O)(=O)Nc3c(Cl)cccc3Cl)nc2n1
0.06,-1.2,CCOC(=O)[C@H]1NN=C(C(=O)OC)[C@@H]1c1ccccc1
1.2,0.61,CCCCCN(C(=O)CN1CCC(Cc2ccccc2)CC1)c1c(N)n(CCCC)c(=O)[nH]c1=O

Additional entries follow:
KCNQ2 enhance,KCNQ2 enhance baseline,Compound
0.32,1.4,CCOc1ccc(N2C(=O)Nc3ccccc3C2(O)C(=O)NCc2ccc(F)cc2)cc1 (configuration not stated)
0.69,-2.7,COc1cc(C=O)c(Cl)cc1OCC(N)=O
0.08,1.9,COC(=O)c1c(NC(C)=O)sc(C(=O)N2CCOCC2)c1C
0.28,-0.86,CCOC(=O)C1=C(COC(=O)c2ccc(Br)o2)NC(=O)NC1C (configuration not stated)
0.15,1.2,COc1ccc(NC(=O)c2ccccc2NC(=O)c2ccccc2)cc1
11*,4.3*,O=C(N/N=C/c1cccs1)c1[nH]ncc1Br
2.1,-1.8,Nc1c([N+](=O)[O-])c(=O)sc2ccccc12
0.03,0.58,CCC(CCC(=O)Nc1cccc([N+](=O)[O-])c1)C(=O)O (configuration not stated)
0.22,0.94,Cc1cc(C(=O)Nc2ccccn2)cs1
0.01,0.71,O=C(COc1ncnc2ccccc12)N1CCN(S(=O)(=O)c2ccccc2)CC1
0.32,0.58,Cc1ncc(CN2CCCC(C(=O)Nc3ccc(-n4ccnc4C)cc3)C2)cn1 (configuration not stated)
0.25,-0.39,O=c1c2nnn(-c3cccc(F)c3)c2ncn1Cc1ccccn1
0.05,-0.1,COc1cc(CNc2ccc(N3CCN(C(C)=O)CC3)cc2)ccc1OCc1ccc(F)cc1
0.06,-1.5,CSc1ccc(-c2c(C#N)c(N)nc3c2CCCC3)cc1
1.2,-0.48,COc1ccc(-c2cccc(NS(=O)(=O)c3cc([N+](=O)[O-])c(C)c([N+](=O)[O-])c3)c2)nn1
1.3,-3,Nn1cnnc1N/N=C\c1ccc(-c2ccccc2[N+](=O)[O-])o1
0.22,-0.58,CN(Cc1nc2ccccc2[nH]1)C(=O)C1CCC(=O)N(CCc2cccc(F)c2)C1 (configuration not stated)
0.7,0.07,CC(=O)Nc1nnc(SCC(=O)N2CCN(Cc3ccccc3)CC2)s1
1.2,0.56,COc1ccc(-n2c(SCC(=O)N/N=C/c3ccccc3OCC(=O)O)nc3ccccc3c2=O)cc1
1.1,-0.64,CCn1c(N2CCN(C(=S)Nc3ccc(OC)cc3)CC2)nc2ccccc21
0.76,-1.2,CCC(Sc1nc(-c2cccc(OC)c2)c(C#N)c(=O)[nH]1)C(=O)Nc1nnc(C(C)C)s1 (configuration not stated)
0.24,-0.18,O=C(NC(=S)N1CCCC1)c1ccccc1Cl
1.4,-2.7,O=C1CN(C(=O)COc2ccc(F)cc2Br)c2ccccc2N1
0.64,2.2,Cc1c(NC(=O)c2cccc(F)c2)c(=O)n(-c2ccccc2)n1C
0.34,0.31,S=C(NCCc1ccccc1)N/N=C/c1cccc(Cl)c1Cl
0.53,0.32,Cn1nc(OC(=O)Nc2cccc(Cl)c2)cc1C(F)(F)F
0.02,-2.1,NS(=O)(=O)c1cc(C(=O)NC2CCSc3ccccc32)ccc1Cl (configuration not stated)
2.7,0.55,O=C(Nc1ccc2nc(-c3cccnc3)[nH]c2c1)c1ccco1
0.46,3.1,C/C(=N\NC(=O)Cn1ccc(C(F)(F)F)n1)c1ccco1
0.76,-0.32,CN(C(=O)COC(=O)CCC(=O)c1ccc(Cl)cc1)c1c(N)n(Cc2ccccc2)c(=O)[nH]c1=O
1.4,-0.32,COc1ccc(S(=O)(=O)N2CCN(CCCOc3ccc(F)cc3)CC2)cc1OC

Some of these compounds in order of formula weight, low to high.
KCNQ2 enhance,KCNQ2 enhance baseline,Compound
0.03,0.58,CCC(CCC(=O)Nc1cccc([N+](=O)[O-])c1)C(=O)O (configuration not stated)
2.7,0.55,O=C(Nc1ccc2nc(-c3cccnc3)[nH]c2c1)c1ccco1
0.32,1.4,CCOc1ccc(N2C(=O)Nc3ccccc3C2(O)C(=O)NCc2ccc(F)cc2)cc1 (configuration not stated)

An excerpt; count on the stated rates, not on these rows.
